Compound activity deposited in PubChem BioAssay by National Center for Advancing Translational Sciences (NCATS).
TRPV1 potentiator = potentiators of human vanilloid receptor 1 (TRPV1); potentiation, % at 8.33 µM; TRPV1-expressing cells, Fluo-8 calcium influx, capsaicin EC20 potentiation; host cell line not named in the record; control for the full effect not named in the record; hit rate 0.02% among 320,000; AID 540277; active means potentiation above 80%; inconclusive means 30% to 80%; inactive means below 30%; note: 0% is about no effect
Target sequence (Q8NER1 whole entry, looked up): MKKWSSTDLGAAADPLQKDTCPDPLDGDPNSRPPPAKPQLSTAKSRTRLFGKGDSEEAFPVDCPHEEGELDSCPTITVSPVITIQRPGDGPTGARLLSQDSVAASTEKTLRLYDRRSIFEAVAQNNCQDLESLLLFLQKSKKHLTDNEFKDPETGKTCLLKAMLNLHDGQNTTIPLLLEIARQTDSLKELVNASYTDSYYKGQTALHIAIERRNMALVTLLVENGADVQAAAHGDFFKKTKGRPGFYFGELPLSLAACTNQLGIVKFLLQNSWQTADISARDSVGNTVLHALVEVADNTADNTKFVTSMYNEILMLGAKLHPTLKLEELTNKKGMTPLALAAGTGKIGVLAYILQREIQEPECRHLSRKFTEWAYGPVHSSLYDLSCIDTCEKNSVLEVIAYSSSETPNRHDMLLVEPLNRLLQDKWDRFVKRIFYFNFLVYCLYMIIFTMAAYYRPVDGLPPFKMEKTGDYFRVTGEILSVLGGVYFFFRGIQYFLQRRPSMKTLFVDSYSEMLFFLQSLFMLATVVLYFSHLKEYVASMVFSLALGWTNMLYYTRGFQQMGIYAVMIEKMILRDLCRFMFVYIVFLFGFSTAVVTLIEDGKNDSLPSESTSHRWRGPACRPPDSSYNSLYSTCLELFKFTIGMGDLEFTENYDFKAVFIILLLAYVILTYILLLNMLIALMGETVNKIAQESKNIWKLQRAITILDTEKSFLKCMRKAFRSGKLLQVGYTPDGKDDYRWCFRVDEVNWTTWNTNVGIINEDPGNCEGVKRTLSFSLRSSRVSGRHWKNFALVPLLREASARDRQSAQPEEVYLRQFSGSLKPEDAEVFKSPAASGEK
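Fluo-8 calcium influx in TRPV1-expressing cells, kinetic read (ex 480/em 520 nm). Compound added and read 3 min for agonist activity, followed by capsaicin at EC20 final and 2 min further read for enhancement.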
Menin-MLL FL inh = inhibitors of human menin-MLL interaction, wild-type MLL peptide. Fluorescence polarization, fluorescein-MLL peptide displacement from menin. AID 1766. 290,000 tested, under 10 active. FP activity change, % at 61.4 µM; inconclusive = falling polarisation curve, or a change in total fluorescence; inactive = total fluorescence flat and polarisation flat or rising; no compound was filed as active; the % refers to the polarisation; negative = inhibition;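 note: % of control where 0% means no effect; inhibitors lower the polarisation; unlabelled MLL peptide was the positive control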
ClpP mod = qHTS Assay for Activators of ClpP. hit rate 1.9% among 340,000. Potency, µM (doses to about 57.5 µM), for the others: at the top dose activity change, negative = active. AID 651965, 2013. purified B. subtilis ClpP, FRET peptide cleavage, 20 min; active = well fitted falling curve with a large enough effect; inconclusive = small, poorly fitted or top-dose-only effect; inactive = no such curve, though single readings can be large or run the other way; note: potency is the fitted concentration of half-maximal effect; the source files actives as falling curves though it sought activators and does not explain the sign; nearly all actives have a fitted effect of over 65% in size; many hits overshoot -100%
Target sequence (P80244 whole entry, looked up): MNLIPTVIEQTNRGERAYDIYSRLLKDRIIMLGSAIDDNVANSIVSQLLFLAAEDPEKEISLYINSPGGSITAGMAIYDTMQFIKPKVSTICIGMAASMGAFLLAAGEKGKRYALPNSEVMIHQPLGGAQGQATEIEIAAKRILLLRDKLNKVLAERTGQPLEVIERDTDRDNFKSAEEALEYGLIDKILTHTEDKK
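Buffer: 100 mM Tris/HCl pH8, 100 mM KCl, 0.05% low protease BSA, 2.5% glycerol, 0.01% Tween-20. ClpP 10 microg/mL final; 20 min RT; delta FRET normalized to ADEP and DMSO controls.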
gsp agonist = activates gsp, the McCune-Albright syndrome mutation; gsp mutant cells, cAMP HTRF, 30 min; control for the full effect not named in the record; Potency, µM (top dose mostly 76.9 µM), for inactives: top-dose activation (cAMP increase), actives largely listed as activators; hit rate 0.13% among 340,000; active = well fitted activation curve with a large enough effect; inconclusive = small, poorly fitted or top-dose-only effect, or another doubt; inactive = no such curve, though single readings can be large or run the other way; cell line not stated here;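 note: phosphodiesterase inhibitor Ro 20-1724 added with compounds to block cAMP breakdown; potency is the fitted concentration of half-maximal effect; nearly all actives have a fitted effect of over 60% in size; about a fifth of the inactives were tested at one dose only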
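Cells stably selected in G418 were plated at 2000/well, grown 16-24 hr, then given compounds in DMSO with the PDE inhibitor […] (300 uM solution added) for 30 min at 37C; cAMP was read by HTRF.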
Sfp inh = blocks B. subtilis Sfp PPTase activity; Biochemical Sfp PPTase activity, qHTS; hit rate 3.5% among 310,000; Potency, µM, inactives show max response, negative = inhibition, hits mostly inhibitors; active = well fitted inhibition curve with a large enough effect; inconclusive = small, poorly fitted or top-dose-only effect, or another doubt; inactive = no such curve, though single readings can be large or run the other way;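 note: the enzyme is Sfp with the accession as filed and its product quenches rhodamine fluorescence; potency is the fitted concentration of half-maximal effect; 0% = enzyme reaction without inhibitor and -100% = no enzyme wells; top concentration of the series not given in the record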
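Step 1, compound plus 15 nM Sfp-PPTase, 15 min, room temperature. Step 2, add rhodamine-CoA (5 uM) and BHQ-2-YbbR (12.5 uM). Step 3, read 525/598 nm fluorescence at 0 and 30 min.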
CtBP-E1A blk = blocks the CtBP interaction with E1A | AlphaScreen GST-E1A/His-CtBP binding, 1536-well; hits give low values; control for the full effect not named in the record | activity change, % (concentration not given with the values) | hit rate 0.49% among 340,000; in the data active means activity change below about -65%; inconclusive means about -30% to -65%; inactive means above about -30%; note: % is set by controls: 0 for no effect and ±100 for the full control effect
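Steps: dispense buffer (Tris pH 8.0, NaCl 300 mM, TCEP 1 mM, BSA, Tween 20); add 5X protein mix (GST-E1A, His-CtBP, 125 nM each); pin 23 nL compound; 2 h at 37 °C, dark; add 5X beads (50 ug/mL); 1 h; read.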
gsp antagonist = antagonizes gsp, the McCune-Albright syndrome mutation; gsp-mutant cells, cAMP HTRF, 30 min; control for the full effect not named in the record; Potency, µM (doses to about 76.9 µM), inactives show top-dose activity change, negative = inhibition, actives largely listed as inhibitors; hit rate 0.4% among 340,000; AID 624288; active = falling curve of any shape with a large fitted effect; inconclusive = falling curve, mostly with a smaller effect; inactive = flat or rising curve; cell line not stated here;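 note: intracellular cAMP measured with PDE inhibitor Ro 20-1724 present during compound exposure; potency is the fitted concentration of half-maximal effect; % is set by controls: 0 for no effect and ±100 for the full control effect; nearly all actives have a fitted effect of over 65% in size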
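Cells, 2000/well, grown 16–24 h in DMEM 10% FBS with 0.5 mg/ml G418, then compounds plus […] (300 uM addition stock), 30 min at 37C. cAMP read by HTRF (cAMP-d2 and anti-cAMP antibody-K in lysis buffer) after 30 min RT.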
Active calls of the source: *; ? = inconclusive; / = not tested or not shown; [ ] = dose if it differs, or a comment.

SMILES	TRPV1 potentiator	Menin-MLL FL inh	ClpP mod	gsp agonist	Sfp inh	CtBP-E1A blk	gsp antagonist
CCOC(=O)c1c(O)c2ccccc2n(CC)c1=O	-4	-0.1	-12%	-6%	9%	-1	-6%
Cc1cc(C)cc(SCc2noc(C(=O)NCCC(C)C)c2C(=O)NCCC(C)C)c1	/	/	-1.8%	-16%	/	18	6%
COc1ccc(C(=O)Cn2c(NCCCO)nc3ccccc32)cc1OC	5	0.3	2.0%	11%	18%	4	15%
C=CCNC(=O)c1cc(Cl)ccc1[N+](=O)[O-]	1	-2.5	0.3%	-1%	7%	2	10%
O=C(NNS(=O)(=O)c1ccc(Cl)cc1)NC1CCCCC1	-10	2.7	2.3%	-13%	32%[activator]	0	-4%
CCCN(C(=O)COC(=O)CC1CCCCC1)c1c(N)n(Cc2ccccc2)c(=O)[nH]c1=O	-6	/	0.2%	-4%[15.4 µM]	/	-3	4%
CC(C)(C)[C@H]1COC(=O)[C@@H](Cc2ccc(F)cc2)CC/C=C/C[C@@H](CC(=O)N[C@H](CO)Cc2ccccc2)C(=O)N1	/	/	1.0%	/	/	0	-5%
O=C(Nc1cccc(-c2nc3ccccc3o2)c1)c1cccnc1	4	-1.9	/	11%	22%	-2	?
COc1cccc(NC(=O)CSC2=NN3CCCC(=O)N=C3S2)c1	1	-0.1	/	-18%[15.4 µM]	23%	-7	-5%
Cc1cccc(NC(=S)N2CCCCCC2)c1C	-4	/	0.5%	?	12%	5	1%
CCC(=O)OCC(=O)Nc1ccc([N+](=O)[O-])cc1OC	-1	-3.4	/	16%	5%	3	0%
O=C(Nc1ccc2nc(C3CC3)n(Cc3ccc(F)cc3)c(=O)c2c1)c1ccco1	-8	1.6	-1.8%	-18%	-2%	-12	-1%
Cc1ccc(-c2csc(NC(=O)C3CC(=O)N(Cc4ccco4)C3)n2)cc1 (centres undefined)	?	-0.2	2.0%	1%	1%	-6	-7%
CC1SCC(=O)N(CC(=O)NCCc2ccccc2)C1=O (centres undefined)	11	-0.4	/	20%[15.4 µM]	11%	4	-1%
CCOc1cc(N2CCOCC2)c(OCC)cc1NC(=O)Cn1cnc2c(=O)n(C)c(=O)n(C)c21	15	-1.3	0.0%	-5%	3%	7	7%
COc1ccc(Cc2noc(CN3CCCC(C(=O)c4cccs4)C3)n2)cc1OC (centres undefined)	-4	-1.0	/	11%[15.4 µM]	13%	0	-3%
COC(=O)c1ccc2c(c1)NC1=C(C(=O)CC(C)(C)C1)C(c1ccncc1)N2 (centres undefined)	-11	?	0.6%	-2%[15.4 µM]	?	12	-17%
COc1ccc(-c2c(C(C)=O)c(C)n(C)c2C)cc1	22	-1.0	-3.1%	-2%[15.4 µM]	-13%	-3	10%
Nc1ccccc1SCC(O)Cn1ccc2ccccc21 (centres undefined)	14	0.4	-0.2%	-5%[15.4 µM]	9%	-4	7%
CCN1C(=O)[C@H]2[C@@H](c3ccc(OC)cc3)N[C@]3(CCCN(Cc4ccc(F)cc4)C3=O)[C@H]2C1=O	/	/	1.1%	?	/	5	/
CCn1c(C)nc2cc(C(=O)NNC(=O)CCC3CCCCC3)ccc21	4	-13	2.1%	-11%[15.4 µM]	-16%	2	?
COc1cccc(/C=N/NC(=O)CN2CC(c3ccccc3)CC2=O)c1OC (centres undefined)	19	3.3	/	3%[15.4 µM]	-9%	-11	-1%
COc1ccc(C2C(C(=O)N3CCC(C)CC3)c3ccccc3C(=O)N2C)cc1 (centres undefined)	4	2.2	0.5%	9%	11%	5	1%
COc1c(C(=O)Nc2ccc(Cc3ccncc3)cc2)ccc2ccccc12	0	2.8	?	19%	?	0	-139%
O=C(CCn1nnnc1CN1CCOCC1)N1CCC(c2ccccc2F)C1 (centres undefined)	6	-4.2	-0.2%	26%	11%	13	10%
O=c1c2ccccc2nc(/C=C/c2ccccc2)n1CCc1ccccc1	7	2.9	0.6%	-35%[inhibitor]	-3%	-1	1%
CCOc1ccc(CN(C)C(=O)c2cc3ccccc3o2)cc1OC	?	3.9	/	-17%	-2%	0	-4%
CCOC(=O)c1c(CSc2ccccc2)n(C)c2cc(Br)c(OC)c(O)c12	17	0.4	1.7%	15%	13%	1	?
Cc1ccc(N2C(=O)/C(=C\c3ccc(C(C)C)cc3)N=C2SC2CCOC2=O)cc1 (centres undefined)	-2	1.1	-1.7%	?	4%	-18	4%
Nc1ccc(-c2nnn(Cc3ccccc3)n2)cc1	/	/	/	-28%	/	3	5%
Cc1cc([N+](=O)[O-])nn1CC(=O)N1c2ccccc2CC1C (centres undefined)	-16	4.0	1.2%	-13%[15.4 µM]	4%	6	-1%
CSc1ccc(NC(=O)N2CC=C(n3c(=O)[nH]c4ccccc43)CC2)cc1	7	1.5	-0.4%	19%[15.4 µM]	-6%	-1	?
COCc1c(C(=O)N/N=C/c2cccc3ccccc23)nnn1-c1nonc1N	0	-2.2	4.2%	-3%	-6%	7	22%
O=C(O)CC(NC(=O)C12CC3CC(CC(C3)C1)C2)c1cc([N+](=O)[O-])ccc1Cl (centres undefined)	-3	5.3	-1.9%	9%[15.4 µM]	-17%	-1	-9%
Cc1ccc(-c2nc3ncccc3o2)cc1NC(=O)C(C)(C)C	1	-3.0	4.6%	-13%	5%	/	-11%
Cc1nn(-c2ccccc2)c(C)c1C(=O)OC(C)C(=O)Nc1ccc(C(N)=O)cc1 (centres undefined)	/	/	-5.1%	-1%[15.4 µM]	/	4	-13%
O=C(Nc1ccccc1)Nc1ccc2ccccc2c1	6	-0.6	-17%	-4%	10%	6	12%
C/C(=N\N=c1/scc(C)n1Cc1ccco1)c1cccc([N+](=O)[O-])c1	1	0.2	-5.7%	-25%	?	-18	-5%
O=S(=O)(N[C@@H]1C[C@H]2CC[C@@H]1C2)c1cccs1	-4	-1.7	-0.4%	-46%[inhibitor]	1%	8	6%
CCN(C(=O)COC(=O)CCC1CCCC1)c1c(N)n(Cc2ccccc2)c(=O)[nH]c1=O	16	/	-2.3%	5%	/	11	14%

Grouped by structure, the compounds so far with a Cl atom
SMILES	TRPV1 potentiator	Menin-MLL FL inh	ClpP mod	gsp agonist	Sfp inh	CtBP-E1A blk	gsp antagonist
C=CCNC(=O)c1cc(Cl)ccc1[N+](=O)[O-]	1	-2.5	0.3%	-1%	7%	2	10%
O=C(NNS(=O)(=O)c1ccc(Cl)cc1)NC1CCCCC1	-10	2.7	2.3%	-13%	32%[activator]	0	-4%
O=C(O)CC(NC(=O)C12CC3CC(CC(C3)C1)C2)c1cc([N+](=O)[O-])ccc1Cl (centres undefined)	-3	5.3	-1.9%	9%[15.4 µM]	-17%	-1	-9%

Continuation:
SMILES	TRPV1 potentiator	Menin-MLL FL inh	ClpP mod	gsp agonist	Sfp inh	CtBP-E1A blk	gsp antagonist
Cc1[nH]c(=O)[nH]c(=O)c1S(=O)(=O)N1CCCCC1	-1	0.7	/	5%[15.4 µM]	15%	9	5%
COc1ccc(Nc2nc(OC)nc(N3CCN(c4ccc(OC)cc4)CC3)n2)cc1	-14	2.7	0.3%	?	7%	-2	3%
CC1(C)Oc2ccc3ccc(=O)oc3c2/C(=C/NCCO)C1=O	17	-1.7	-2.2%	-3%	1%	-9	2%
O=C(N[C@@H](Cc1ccccc1)C(=O)O)c1cccnc1	2	0.0	3.5%	26%	11%	1	8%
CCOC(=O)c1nc2ccc(C)cc2c2c1C1CC(c3c(Cl)cccc31)N2C(=O)OCc1ccccc1 (centres undefined)	/	/	-12%	-99%[inhibitor]	/	6	/
O=C(COC(=O)c1cc(-c2cccs2)nn1-c1ccccc1)Nc1cccc([N+](=O)[O-])c1	2	3.9	/	?	?	-16	-14%
COCC(=O)N1CCC(Oc2ccc(C(=O)N3C[C@@H]4CCC[C@H]3C4)cc2)CC1	9	-2.9	/	14%	18%	0	11%
O=C(O)c1nc(Cl)c(Cl)c(N/N=C/c2ccccc2C(F)(F)F)c1Cl	24	-1.6	/	21%	-1%	-13	-8%
COc1cc(CNCc2ccc(OC)c3ccccc23)cc(OC)c1OC	-6	-0.7	-6.7%	-60%[inhibitor]	-22%	/	-2%
C[C@@H]1CCC[C@H](C)N1Cc1nc(Cc2ccccc2Cl)no1	5	1.5	/	2%[15.4 µM]	17%	-8	5%
CCOC(=O)c1c(C)[nH]c(C)c1S(=O)(=O)NCCN1CCN(c2cc(Cl)ccc2C)CC1	0	1.4	-0.3%	-36%[inhibitor]	4%	/	-18%
COc1ccc2cc(-c3cc(C(=O)OCC(=O)Nc4c(C)n(C)n(-c5ccccc5)c4=O)c4ccccc4n3)ccc2c1	7	4.9	42%	?	6%	1	3%
COC(=O)CC#N	6	/	0.5%	/	/	9	5%
OC(COc1ccc2c(c1)CCC2)CN1CCN(c2ccccc2F)CC1 (centres undefined)	?	5.3	-1.3%	-42%[inhibitor]	14%	6	4%
CN(C)c1ccc(S(=O)(=O)NCC(=O)N2CCN(c3ccccc3)CC2)cc1[N+](=O)[O-]	6	/	0.8%	1%[15.4 µM]	/	-3	0%
CCCCOc1ccccc1C1NC(=O)NC(C)=C1C(=O)OCCOCC (centres undefined)	5	2.8	0.2%	-56%[inhibitor]	11%	9	2%
COc1cccc(-c2ncc3ccccc3c2COC(=O)c2ccco2)c1	?	/	-0.5%	8%	/	1	-14%
O=C(N/N=C\c1cc(Br)c(Br)o1)C1COc2ccccc2O1 (centres undefined)	-3	5.6	6.1%	6%[15.4 µM]	40µM*	1	-18%
O=C(CCc1ccccc1)NNC(=O)COc1ccc(Br)cc1	-2	4.2	/	5%[15.4 µM]	12%	-1	6%
Cc1cc(Br)ccc1NC(=O)CN(C)C(=O)CN1C(=O)NC(C)(C2CC2)C1=O (centres undefined)	-3	/	1.6%	-51%[inhibitor]	/	8	13%
Cc1cc2cc(CN(CC3CCCO3)C(=O)c3cnccn3)c(=O)[nH]c2cc1C (centres undefined)	-9	-2.2	-26%	-40%[inhibitor]	6%	-4	1%
O=C(CN1CCN(c2ccccn2)CC1)N1c2ccccc2CCc2ccccc21	-9	0.5	3.7%	-4%	3%	-3	-12%
CCOCCCNC(=O)/C(C#N)=C/c1ccc(-c2ccc(S(=O)(=O)N3CCOCC3)cc2)o1	-1	/	-7.0%	-34%[inhibitor]	?	1	?
